Mtb hypoxia inh: reduces hypoxia-regulated biosensor signal in M. tuberculosis | M. tuberculosis hypoxia-regulated fluorescent reporter, fluorescence | fluorescence inhibition, % (test concentration not listed) | 300,000 compounds, 0.1% hits | AID 1159583;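 active means 35 to 45% if threefold the growth effect, above 45% if 1.5-fold the growth effect; inactive means the rest, general growth blockers included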;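 further: wells of about 50 µL received 100 nL stock; 0% = vehicle wells and 100% = reference inhibitor wells; whole bacteria with a GFP reporter of the hypoxia response; strong numbers were not always called active; many hits fall short of the cut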
Sa ugtP lethal: growth inhibition of S. aureus ugtP deletion strain | 330,000 compounds, 0.54% hits | growth inhibition, % (concentration not given with the values) | S. aureus RN4220 ugtP deletion, OD600 growth, 16 h; some inactives read as strong as hits;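 active means z-score under -3 and OD600 up to 0.15 on both plates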;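 further: plate controls were untreated wells for no effect and antibiotic for full effect; wells of about 80 µL received 100 nL stock; the first replicate is given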
BJeLR viability: kills HRASV12-expressing BJeLR cells | 300,000 compounds, 0.17% hits | BJeLR (HRASV12) viability, CellTiter-Glo ATP luminescence, 48 h; reference of the scale not given here | inhibition, % (no concentration beside the values);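 active means replicate mean above 50%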;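 further: 50 nL library stock added to about 25 µL; numbers are from one replicate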
Bead autofluor: flagged as autofluorescent in microsphere protease counterscreen; 360,000 compounds, 3.1% hits; AID 624483; compound autofluorescence counterscreen, microsphere flow cytometry; active compounds read high; fluorescence intensity (no concentration beside the values);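 active means at least 3 SD above the mean of all compounds, about 16000 in these data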;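 further: 100 nL of 1 mM stock went into each well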
PrP 5UTR inh: inhibition of PrP 5' UTR reporter expression | 340,000 compounds, 0.35% hits | inhibition, % (no concentration beside the values) | cell-based PrP 5' UTR mRNA reporter, plate reader;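 active means every replicate at 50% or more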;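 further: 0 = median of the neutral control wells; tested in H4 reporter cells; numbers are from one replicate; inactives centre near -14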
RN4220 kill: S. aureus RN4220 growth inhibition; OD600, 16 h; 330,000 compounds, 0.33% hits; inhibition, % (concentration not given with the values);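 active means z-score of -3 or lower and OD600 up to 0.18 on both plates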;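 further: plate controls were untreated cells for no effect and reference antibiotic for full effect; stock transfer was 100 nL into about 80 µL; one replicate is shown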
Mtb hypoxia inh growth: further read-out of Mtb hypoxia inh, marked with its call; growth inhibition, %; measured here: M. tuberculosis growth (absorbance);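 0% = vehicle and 100% = reference antibiotic; read after six days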
* = called active by the depositor; nt = not tested or not shown.

Every second line gives: Mtb hypoxia inh | Mtb hypoxia inh growth | Sa ugtP lethal | BJeLR viability | Bead autofluor | PrP 5UTR inh | RN4220 kill
Cc1cccc(NC(=O)CSCC(=O)Nc2cc(Cl)ccc2N2CCOCC2)c1
    8 | 3 | 4 | 7 | 6175 | -27 | 13
O=C(CCNS(=O)(=O)c1cccc2nsnc12)NC1CCN(Cc2ccccc2)CC1
    4 | 17 | 6 | -2 | 3801 | -23 | 3.8
COc1ccc2[nH]c3nc(SCC(=O)NC4CC4)nnc3c2c1
    -8 | -7 | -5 | 0 | 6013 | -19 | 5.1
Cc1[nH]n(-c2ncc(-c3ccccc3)s2)c(=O)c1C(c1ccc(Br)cc1)C(C#N)C#N (stereo not drawn)
    -7 | -8 | 1 | -2 | 7511 | -3 | 15
Cc1ccc(OCC(=O)N2CCN(C(=O)c3ccncc3)CC2)cc1
    14 | 8 | 1 | 3 | 4177 | -20 | 5.4
c1cc2c(cn1)cnc1cscc12
    -2 | 11 | 17 | -1 | 2464 | -3 | 1.3
CCOC(=O)C[C@H]1c2cc(F)ccc2S(=O)(=O)N1C1CCCCC1
    nt | nt | nt | 5 | 4240 | -23 | nt
O=C(NCc1nc2ccccc2[nH]1)C1=CC(c2ccc3c(c2)OCO3)CC(OCCCCO)O1 (stereo not drawn)
    1 | 8 | -2 | nt | nt | nt | -3.6
CCOC(=O)Nc1ccc([N+](=O)[O-])cc1C
    10 | 17 | 5 | -10 | 8584 | -22 | 4.0
O=Cc1c(Sc2ccccc2)nc2ccccn2c1=O
    nt | nt | 2 | -14 | 2365 | -19 | 3.6
COc1ccc(C(C)=O)cc1COC(=O)c1ccc(S(=O)(=O)N2CCOCC2)cc1
    4 | -5 | 1 | -9 | 4147 | -8 | -2.5
CCn1nnc(-c2ccccc2NC(=O)C(F)(F)F)n1
    13 | 2 | 8 | -2 | 12524 | -24 | 0.7
O=C1c2ccccc2NC(c2ccc(-c3cccc(Cl)c3)o2)N1O (stereo not drawn)
    -3 | -2 | -22 | -16 | 10487 | -72 | 9.6
CC1Cc2cc(S(=O)(=O)NCc3ccccc3)ccc2N1C(=O)C1CCC1 (stereo not drawn)
    -2 | -1 | 2 | 6 | 5084 | 11 | 3.9
O=C(CSc1nnnn1C1CCCCC1)NNC(=O)c1ccco1
    12 | 18 | 8 | -5 | 4677 | -12 | 3.0
O=C(CNC(=O)c1ccc(Cl)cc1)OCC(=O)N1CCCC1
    -3 | -3 | -1 | -4 | 4745 | -25 | 0.9
CCOC(=O)C1=NN(c2ccc(C)cc2)CC1C(=O)OC (stereo not drawn)
    7 | 11 | -2 | -13 | 2563 | -28 | 3.2
Cc1ccc(Cl)cc1NC(=O)COC(=O)Cn1cnc2c1c(=O)n(C)c(=O)n2C
    16 | 7 | 4 | 6 | 3256 | -3 | 1.1
CC1(C)CC(=O)C(/C=N/c2ccccn2)=C(O)C1
    nt | nt | nt | 1 | 5529 | 9 | nt
Cn1c(N)c(C(=O)Nc2c(Cl)cccc2Cl)sc1=S
    -1 | 2 | -10 | -7 | 4484 | 14 | 4.6
CCCC(=O)NC(=S)Nc1cccc(NC(=O)c2ccccc2)c1
    0 | -15 | 18 | -3 | 2830 | -22 | 2.5
COc1ccccc1N1CC(C(=O)Nc2nc(C)cs2)CC1=O (stereo not drawn)
    5 | -5 | 9 | nt | nt | -22 | 3.8
Cc1c(Nc2c3ccccc3nc3ccccc23)c(=O)n(-c2ccccc2)n1C
    0 | -5 | 4 | -7 | 4623 | -21 | 1.5
CC(CN1CCOCC1)OC(=O)C=Cc1ccccc1 (stereo not drawn)
    0 | 0 | 0 | nt | nt | nt | 3.9
Cc1ccsc1-c1nc(CN2C[C@@H](C)O[C@@H](C)C2)c(C)o1
    12 | 8 | 6 | 4 | 4410 | -13 | 5.3
COc1ccc(CCN(C)C(=O)N2CCOCC2)cc1OC
    4 | 3 | 4 | -1 | 9572 | -27 | 2.2
COc1ccc(C2=NS(=O)(=O)N(C)C(C(=O)N3CCN(C)CC3)=C2)cc1
    0 | -1 | 5 | -7 | 6317 | -17 | 6.3
Cc1cc(C)c2c(=O)[nH]c(SCC(=O)NCCc3ccccc3)nc2n1
    18 | 6 | 5 | -3 | 10820 | -20 | 2.9
COc1ccc(CC(=O)NCCC2=CCCCC2)cc1
    16 | 8 | -1 | -1 | 3958 | -16 | -0.4
CC1Cc2ccccc2N1CC(=O)NC(=O)NC1CCCC1 (stereo not drawn)
    5 | 2 | 1 | nt | 3291 | -22 | 1.4
Cc1cc(=O)[nH]c(NN=Cc2ccc(N(C)C)cc2)n1
    -7 | -4 | -12 | nt | nt | nt | -2.7
CCn1nc(C(=O)NNC(=O)c2ccccc2OCc2c(C)noc2C)c2ccccc2c1=O
    -5 | 1 | 10 | nt | 2899 | -9 | 4.7
Cc1ccc(NC(=O)CCCC(=O)OC(C)C(=O)c2ccccc2)cc1 (stereo not drawn)
    -3 | -4 | 0 | -9 | 5208 | -9 | 7.4
O=C(CCNC(=O)C1CCN(S(=O)(=O)c2ccccc2)CC1)NCCc1cccc(F)c1
    2 | 4 | 5 | 3 | 4828 | 0 | 1.0
COc1ccccc1-n1cccc1C=O
    5 | 4 | 8 | 0 | 5228 | -25 | 4.5
COc1ccccc1/C=C1/C(=O)N(c2cc(C)cc(C)c2)C(c2cccc([N+](=O)[O-])c2)S1(=O)=O (stereo not drawn)
    7 | 12 | 3 | 1 | 2540 | -11 | 0.8
CC(C)S(=O)(=O)C1=NSC2=NC(=O)/C(=C\c3ccc(-c4ccccc4)o3)C(=N)N21
    3 | 3 | 43 | -7 | 2041 | -12 | 25
O=C(Nc1ccc(C(=O)Oc2ccccc2)c(O)c1)c1ccccc1
    nt | nt | 10 | -10 | 2573 | -23 | -8.7
COc1ccc(C(=O)OCC(=O)N2CCC(C)CC2)cc1S(=O)(=O)N1CCOCC1
    -1 | -6 | -1 | nt | 4903 | -10 | 2.4
O=C(Nc1ccc(OC(=O)c2cccnc2)cc1)c1cccnc1
    8 | 1 | 3 | -7 | 9111 | 7 | 1.0
O=C(NCCCCCCCCCNC(=O)C(F)(F)F)C(F)(F)F
    8 | 5 | 10 | -5 | 8079 | -18 | 3.4
COc1ccc(N(C)C(=O)Nc2ccc3nsnc3c2)cc1
    7 | 17 | 0 | 5 | 2540 | -4 | 1.1
CCn1c(SCc2ccc(F)cc2)nc2c(c1=O)SCC2
    12 | 6 | 4 | -9 | 3599 | 0 | 0.2
Cc1oc(-c2ccccc2Cl)nc1CS(=O)CC(=O)N1CCN(c2ccccc2)CC1 (stereo not drawn)
    0 | 2 | 2 | -5 | 4877 | -21 | 6.8
O=C(CCSCCC(=O)Nc1c(F)c(F)c(F)c(F)c1F)Nc1c(F)c(F)c(F)c(F)c1F
    2 | 10 | -14 | 5 | 3187 | -12 | -2.3
CCCc1cc(C(=O)Nc2ccc(C)cc2)no1
    12 | 9 | 2 | 2 | 5270 | -56 | -6.6
Cc1cccc(NC(=O)CCNS(=O)(=O)c2ccc3[nH]c(=O)oc3c2)c1
    5 | -2 | 2 | -2 | 5912 | 16 | 1.6
CCS(=O)(=O)CCSC(=N)N
    8 | 6 | 7 | 4 | 7125 | -14 | 3.3
COc1ccc(NC(=O)C2CCN(C(=O)c3cccs3)CC2)cc1
    -1 | -6 | 2 | -12 | 4011 | -6 | -0.3
CCOc1cc(N2CCOCC2)c(OCC)cc1NC(=O)COC(=O)CCc1c[nH]c2ccccc12
    4 | 12 | -1 | 9 | 2657 | -21 | -3.5
Cc1ccc(C)c(C(=O)COC(=O)c2ccc(C)c(S(=O)(=O)N3CCOCC3)c2)c1
    6 | -3 | -4 | nt | 3447 | -6 | 0.7
CCC1=NN2C(=N)/C(=C\c3ccc(OCc4cc(=O)n5nc(CC)sc5n4)c(OC)c3)C(=O)N=C2S1
    1 | -4 | -5 | 1 | 1956 | -17 | 2.4
CCC(NS(=O)(=O)c1ccc(C)cc1)C(=O)Nc1ccc(NC(C)=O)cc1 (stereo not drawn)
    nt | nt | 0 | -2 | 2121 | -3 | -6.5
CCOC(=O)c1c(N)sc2c1CCC(CC)C2 (stereo not drawn)
    5 | 3 | 20 | 0 | 2341 | -16 | 0.3
COc1ccccc1CN(Cc1nc2ccccc2c(=O)[nH]1)S(=O)(=O)c1ccc(C)cc1
    10 | -2 | -4 | 0 | 9092 | 13 | 5.5
CC(=O)Nc1ccc(S(=O)(=O)N2CC3(C)CC2CC(C)(C)C3)cc1 (stereo not drawn)
    2 | 4 | -9 | -13 | 4574 | -44 | 2.5
CC(C)N1CCC(N2CCN(Cc3nc4ccccc4s3)CC2CCO)CC1 (stereo not drawn)
    9 | 5 | 3 | 2 | 5601 | -21 | 3.2
COc1ccc(CNC(=O)CN2C(=O)NC3(CCCc4sccc43)C2=O)cc1OC (stereo not drawn)
    4 | -4 | 6 | nt | 7910 | -10 | 2.1
CCC(C)[C@H](NC(=O)N1CC(=O)Nc2ccccc21)C(=O)N1CCC[C@@H]1C(=O)O (stereo partly drawn)
    nt | nt | 8 | -3 | 5347 | -12 | 0.1
CCCOc1ccc2[nH]c(C(=O)N/N=C/c3cc(OC)c(OC)c(OC)c3)cc2c1
    nt | nt | nt | 1 | 3990 | -36 | nt

Sorted by SMILES length (low to high): some entries from above.
Every second line gives: Mtb hypoxia inh | Mtb hypoxia inh growth | Sa ugtP lethal | BJeLR viability | Bead autofluor | PrP 5UTR inh | RN4220 kill
COc1ccccc1-n1cccc1C=O
    5 | 4 | 8 | 0 | 5228 | -25 | 4.5
CCCc1cc(C(=O)Nc2ccc(C)cc2)no1
    12 | 9 | 2 | 2 | 5270 | -56 | -6.6
COc1ccc(NC(=O)C2CCN(C(=O)c3cccs3)CC2)cc1
    -1 | -6 | 2 | -12 | 4011 | -6 | -0.3
Cc1ccc(OCC(=O)N2CCN(C(=O)c3ccncc3)CC2)cc1
    14 | 8 | 1 | 3 | 4177 | -20 | 5.4
O=C(CCSCCC(=O)Nc1c(F)c(F)c(F)c(F)c1F)Nc1c(F)c(F)c(F)c(F)c1F
    2 | 10 | -14 | 5 | 3187 | -12 | -2.3
CC(C)S(=O)(=O)C1=NSC2=NC(=O)/C(=C\c3ccc(-c4ccccc4)o3)C(=N)N21
    3 | 3 | 43 | -7 | 2041 | -12 | 25

Entries of single compounds, looked up by structure. Order of screens: Mtb hypoxia inh, Mtb hypoxia inh growth, Sa ugtP lethal, BJeLR viability, Bead autofluor, PrP 5UTR inh, RN4220 kill
Record of O=C(Nc1ccc(OC(=O)c2cccnc2)cc1)c1cccnc1 = 8, 1, 3, -7, 9111, 7, 1.0
Record of CCn1nc(C(=O)NNC(=O)c2ccccc2OCc2c(C)noc2C)c2ccccc2c1=O = -5, 1, 10, nt, 2899, -9, 4.7
Record of O=C(NCCCCCCCCCNC(=O)C(F)(F)F)C(F)(F)F = 8, 5, 10, -5, 8079, -18, 3.4

(cont.)
Every second line gives: Mtb hypoxia inh | Mtb hypoxia inh growth | Sa ugtP lethal | BJeLR viability | Bead autofluor | PrP 5UTR inh | RN4220 kill
O=[N+]([O-])c1ccc(OCc2cnc(Cl)s2)cc1
    9 | 2 | -2 | nt | 5216 | -25 | 4.3
O=C(CN1CCN(S(=O)(=O)c2ccc(Br)cc2)CC1)NN=Cc1ccco1
    7 | 9 | -4 | nt | nt | nt | 2.3
Cc1ccc(Cn2ccnc2C(=O)Nc2ccccc2)cc1
    1 | -3 | 2 | -6 | 2679 | -40 | 0.3
CCOC(=O)c1ccc(N=C2S/C(=C\c3cc(C)n(-c4cccnc4)c3C)C(=O)N2C)cc1
    -2 | 7 | -8 | -1 | 2858 | -14 | -15
Cc1[nH]c(=S)[nH]c(=O)c1CCOc1ccccc1
    nt | nt | 8 | -1 | 3546 | -16 | -1.1
Cc1ccc(NC(=O)c2cc(-c3ccccc3)nn2-c2ccccc2)c(Br)c1
    6 | 6 | 80 | -2 | 2550 | -7 | -7.5
O=C(O)CCn1nnc(-c2ccccc2)n1
    -3 | 2 | 4 | -6 | 4561 | -21 | 3.1
COc1cccc(C2C(C#N)=C(N)OC3=C2C(=O)CC(c2ccco2)C3)c1OCc1ccc(F)cc1 (stereo not drawn)
    nt | nt | -3 | 6 | 4586 | -14 | -3.1
O=C(c1cc2ccccc2cc1O)N1CCN(c2ccc([N+](=O)[O-])cc2)CC1
    0 | 5 | 77 | -5 | 5691 | -22 | -2.5
NCCCC[C@H](N)c1nnc([C@H](CCC(=O)O)NC(=O)C2CCNCC2)o1
    nt | nt | nt | -6 | 3974 | -5 | nt
COc1ccc(OC)c(S(=O)(=O)NC2CCSc3ccccc32)c1 (stereo not drawn)
    5 | 4 | 2 | -7 | 3874 | -14 | 4.3
CCN(Cc1nc2ccccc2c(=O)[nH]1)C(=O)CN1C(=O)NC2(CCCCC2C)C1=O (stereo not drawn)
    2 | 3 | 2 | nt | 4099 | -2 | 1.0
